gsp antag: qHTS for Antagonists of gsp, the Etiologic Mutation Responsible for Fibrous Dysplasia/McCune-Albright Syndrome: qHTS; gsp-mutant cells, cAMP HTRF, 30 min; control for the full effect not named in the record; Potency, µM (series often up to 76.9 µM), inactives show at the highest dose activity change, negative = inhibition, most hits filed as inhibitors; hit rate 0.4% among 340,000; AID 624288, 2012; active = falling curve of any shape with a large fitted effect; inconclusive = falling curve, mostly with a smaller effect; inactive = flat or rising curve; cell line not stated here;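 further: intracellular cAMP measured with PDE inhibitor Ro 20-1724 present during compound exposure; potency means the concentration at half of the fitted maximal effect; on the % scale 0 is the no-effect control and ±100 the full control effect; nearly all actives have a fitted effect of over 65% in size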
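HTRF cAMP measurement after 30 min RT detection following 30 min, 37C compound treatment alongside […] (added as 300 uM solution) in G418-selected cells seeded at 2000/well and grown 16–24 h.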
D2 potentiator: Beta-Arrestin HTS for Positive Allosteric Modulators of the Human D2 Dopamine Receptor: Potentiators | hit rate 0.23% among 360,000 | potentiation, % (concentration not given with the values) | AID 624464, 2012 | D(2) dopamine receptor (Homo sapiens), P14416 | DiscoveRx D2 beta-arrestin cells, luminescence, 90 min; 100% = 57 uM dopamine signal; active = potentiation of 50% or more; inconclusive = 30% to 50%; inactive = 30% or less;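 further: compound concentration not given in the record; tested on top of an EC20 dose of dopamine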
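PathHunter beta-arrestin assay in DiscoveRx D2 cells. Compounds were added with an EC20 of dopamine (50 nM final) for 90 min at 37 deg C. Luminescence was read 1 h after detection reagent, with 57 uM dopamine as the EC100 control.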
D2 agonist: Beta-Arrestin HTS for Positive Allosteric Modulators of the Human D2 Dopamine Receptor: Agonists | D(2) dopamine receptor (Homo sapiens), P14416 | DiscoveRx PathHunter D2 beta-arrestin, luminescence, 90 min; 100% = 57 uM dopamine signal | activation, % (no concentration beside the values) | hit rate 0.084% among 360,000 | AID 624465, 2012; in the data active = activation above about 40%; inconclusive = about 15% to 40%; inactive = below about 15%; further: compound concentration not given in the record; the text of the record calls up to 30% inactive
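DiscoveRx PathHunter D2 beta-arrestin cells (2,100/well) attached overnight, then compound-stimulated 90 min at 37 C in HBSS/10 mM HEPES/0.1% Tween-20 buffer; beta-galactosidase complementation read by luminescence after 1 h at ambient temperature. Dopamine 57 uM final (EC100) as control.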
gsp ag: qHTS for Agonist of gsp, the Etiologic Mutation Responsible for Fibrous Dysplasia/McCune-Albright Syndrome: qHTS. gsp mutant cells, cAMP HTRF, 30 min; control for the full effect not named in the record. AID 624287, 2012. Potency, µM (titrated, usually from 76.9 µM), for inactives: top-dose activation (cAMP increase), most hits filed as activators. hit rate 0.13% among 340,000; active = well fitted activation curve with a large enough effect; inconclusive = small, poorly fitted or top-dose-only effect, or another doubt; inactive = no such curve, though single readings can be large or run the other way; cell line not stated here;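 further: phosphodiesterase inhibitor Ro 20-1724 added with compounds to block cAMP breakdown; potency means the concentration at half of the fitted maximal effect; nearly all actives have a fitted effect of over 60% in size; about a fifth of the inactives were tested at one dose only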
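Cells stably selected in G418 were plated at 2000/well, grown 16-24 hr, then given compounds in DMSO with the PDE inhibitor […] (300 uM solution added) for 30 min at 37C; cAMP was read by HTRF.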
Six1-Eya2 inh: qHTS Assay for Inhibitors of the Six1/Eya2 Interaction. activity change, % (concentration not given with the values). hit rate 0.56% among 360,000. AlphaScreen GST-Six1/His-Eya2 binding, biochemical; stronger effect = lower value; control for the full effect not named in the record; in the data active = activity change below about -65%; inconclusive = about -30% to -65%; inactive = above about -30%; further: on the % scale 0 is the no-effect control and ±100 the full control effect
Target sequence (O00167 whole entry, looked up): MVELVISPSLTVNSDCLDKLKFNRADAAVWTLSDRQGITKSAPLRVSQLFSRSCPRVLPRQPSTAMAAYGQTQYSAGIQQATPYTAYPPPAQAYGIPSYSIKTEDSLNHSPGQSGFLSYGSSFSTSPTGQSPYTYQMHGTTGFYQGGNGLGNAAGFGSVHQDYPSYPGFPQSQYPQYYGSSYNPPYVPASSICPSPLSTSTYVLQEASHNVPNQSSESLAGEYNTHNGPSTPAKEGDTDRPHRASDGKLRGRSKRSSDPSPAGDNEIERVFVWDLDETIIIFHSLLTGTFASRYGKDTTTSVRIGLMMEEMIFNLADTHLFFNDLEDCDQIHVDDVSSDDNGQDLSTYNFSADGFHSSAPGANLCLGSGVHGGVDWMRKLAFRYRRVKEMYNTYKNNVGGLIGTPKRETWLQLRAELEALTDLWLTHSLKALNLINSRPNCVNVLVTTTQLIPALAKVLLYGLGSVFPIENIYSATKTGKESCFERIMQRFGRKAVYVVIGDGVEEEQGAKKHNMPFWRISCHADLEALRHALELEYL
Target sequence (Q15475 whole entry, looked up): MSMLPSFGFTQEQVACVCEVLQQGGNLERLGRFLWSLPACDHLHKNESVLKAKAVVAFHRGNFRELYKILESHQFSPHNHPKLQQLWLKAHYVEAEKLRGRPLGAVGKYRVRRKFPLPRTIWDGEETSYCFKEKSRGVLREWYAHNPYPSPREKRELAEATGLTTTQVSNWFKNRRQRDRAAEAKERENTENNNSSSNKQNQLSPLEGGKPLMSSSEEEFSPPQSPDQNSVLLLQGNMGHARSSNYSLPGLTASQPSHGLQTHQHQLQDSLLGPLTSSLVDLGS
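GST-Six1 + His-Eya2 (5X stock: 250/500 nM); Tris pH 8.0, 300 mM NaCl, 0.05% BSA, 0.02% Tween 20; GSH donor/Ni acceptor beads; 1 h 37 °C dark; AlphaScreen readout.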
CtBP-E1A blk: qHTS Assay for Inhibitors of the CtBP/E1A Interaction | CtBP / adenovirus E1A interaction (AlphaScreen) | activity change, % (test concentration not listed) | AlphaScreen GST-E1A/His-CtBP binding, 1536-well; stronger effect = lower value; control for the full effect not named in the record | hit rate 0.49% among 340,000; in the data active means activity change below about -65%; inconclusive means about -30% to -65%; inactive means above about -30%; further: on the % scale 0 is the no-effect control and ±100 the full control effect; compound concentration not given in the record
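Steps: dispense buffer (Tris pH 8.0, NaCl 300 mM, TCEP 1 mM, BSA, Tween 20); add 5X protein mix (GST-E1A, His-CtBP, 125 nM each); pin 23 nL compound; 2 h at 37 °C, dark; add 5X beads (50 ug/mL); 1 h; read.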
* hit, by the source's call; [ ] = another dose, or the depositor's remark.

Results for CC(C)c1nc2oc3c(NCc4ccccn4)ncnc3c2c2c1COC(C)(C)C2 ?
gsp antag: 16%; D2 potentiator: 2; D2 agonist: 2.2; gsp ag: 19%[15.4 µM]; Six1-Eya2 inh: 0; CtBP-E1A blk: 6

How did CC(=O)Nc1cccc(C(=O)Nc2ccccc2C(=O)O)c1 do in these assays?
gsp antag: inconclusive; D2 potentiator: -4; D2 agonist: -2.2; gsp ag: 0%; Six1-Eya2 inh: -4; CtBP-E1A blk: -1

How did COc1ccc(OC)c(CCNC(=O)Cn2nc(C)c3c(C)n(-c4ccccc4)nc3c2=O)c1 do in these assays?
gsp antag: inconclusive; D2 potentiator: -4; D2 agonist: 7.9; gsp ag: 26%; Six1-Eya2 inh: 12; CtBP-E1A blk: -4

Results for CN(C)C(CNC(=O)c1cccc(S(=O)(=O)N2CC3(C)CC2CC(C)(C)C3)c1)c1ccco1 (configuration not stated) ?
gsp antag: -12%; D2 potentiator: -4; D2 agonist: -2.4; gsp ag: -9%; Six1-Eya2 inh: -1; CtBP-E1A blk: 6

What do the screens show for `COc1ccnc2c1c(=O)n(Cc1ccc(Cl)cc1Cl)c(=O)n2C`?
gsp antag: -3%; D2 potentiator: -1; D2 agonist: -0.4; gsp ag: -17%; Six1-Eya2 inh: -3; CtBP-E1A blk: -7

What do the screens show for `COc1ccc(CCCC(=O)NCCc2ccccc2)c(C)c1`?
gsp antag: -5%; D2 potentiator: 1; D2 agonist: -2.5; gsp ag: 2%; Six1-Eya2 inh: -2; CtBP-E1A blk: 5

Results for CC1=NNC(=O)C1CCC(=O)N/N=C/c1ccc(Cl)cc1 (configuration not stated) ?
gsp antag: 9%; D2 potentiator: 8; D2 agonist: -0.3; gsp ag: -4%; Six1-Eya2 inh: -1; CtBP-E1A blk: 0

How did CC(Oc1ccc2c(-c3ccccc3)cc(=O)oc2c1)C(=O)NCc1ccccn1 (configuration not stated) do in these assays?
gsp antag: inconclusive; D2 potentiator: -37; D2 agonist: 3.5; Six1-Eya2 inh: 3; CtBP-E1A blk: -3

Results for COc1ccc(CNC(=O)CN2C(=O)COc3ccc(S(=O)(=O)N4CCCC4)cc32)cc1 ?
gsp antag: -8%; D2 potentiator: -6; D2 agonist: -2.0; gsp ag: 28%; Six1-Eya2 inh: 2; CtBP-E1A blk: -1

What do the screens show for `Cc1cc2oc(=O)cc(CN(C)Cc3ccccc3)c2cc1C(C)C`?
gsp antag: inconclusive; D2 potentiator: -2; D2 agonist: -2.2; gsp ag: 17%; Six1-Eya2 inh: 3; CtBP-E1A blk: 19

How did CC(OC(=O)CN1C(=O)NC2(CCCC2)C1=O)C(=O)c1ccccc1 (configuration not stated) do in these assays?
gsp antag: -22%; D2 potentiator: -29; D2 agonist: -2.2; gsp ag: 3%[15.4 µM]; Six1-Eya2 inh: 4; CtBP-E1A blk: 5

Results for CCCOc1ccc(C2=CC(=O)C[C@H](c3ccc(OC)cc3)C2)cc1 ?
gsp antag: -13%; D2 potentiator: -15; D2 agonist: -0.7; gsp ag: -98%[inhibitor]; Six1-Eya2 inh: 2

Results for COc1ccc(C(CC(=O)O)NC(=O)Cc2ccccc2)cc1OC (configuration not stated) ?
gsp antag: -7%; D2 potentiator: -8; D2 agonist: -1.0; gsp ag: -17%; Six1-Eya2 inh: 6; CtBP-E1A blk: 0

How did Cc1cccc2c1CCCC2=O do in these assays?
gsp antag: 14%; D2 potentiator: -4; D2 agonist: 1.6; gsp ag: -13%; Six1-Eya2 inh: 2; CtBP-E1A blk: 6

Results for CSc1nc2ccc(NS(=O)(=O)c3c(Cl)cccc3Cl)cc2s1 ?
gsp antag: -3%; D2 potentiator: 1; D2 agonist: -1.2; gsp ag: -25%; Six1-Eya2 inh: 6; CtBP-E1A blk: -17

Results for O=C(Nc1cccn2ncnc12)C(F)(F)F ?
gsp antag: 15%; D2 potentiator: -9; D2 agonist: -1.7; gsp ag: -2%[15.4 µM]; Six1-Eya2 inh: 6; CtBP-E1A blk: 3

How did CCCCCCCC1CC(CSc2ncn[nH]2)OC1=O (configuration not stated) do in these assays?
gsp antag: -10%; D2 potentiator: -3; D2 agonist: -2.1; gsp ag: 19%; Six1-Eya2 inh: -2; CtBP-E1A blk: 1

Results for O=C(NCC1CCCO1)c1ccc2c(=O)n(Cc3ccc(Cl)cc3)c(=S)[nH]c2c1 (configuration not stated) ?
gsp antag: 8%; D2 potentiator: -4; D2 agonist: 1.0; gsp ag: 11%[15.4 µM]; Six1-Eya2 inh: 0; CtBP-E1A blk: 2

Results for COc1ccc(C(=O)NNC(=O)CN2CCC(n3nnc4cc(C)ccc43)CC2)cc1 ?
gsp antag: 0%; D2 potentiator: -16; D2 agonist: -4.3; gsp ag: 17%; Six1-Eya2 inh: 0; CtBP-E1A blk: 2

How did O=C1CCC2(CCCC2)c2ccccc21 do in these assays?
D2 potentiator: -7; D2 agonist: -2.4; gsp ag: 6%; Six1-Eya2 inh: 17; CtBP-E1A blk: 0

Arranged by length of the SMILES (falling): three of the compounds above
How did CC(OC(=O)CN1C(=O)NC2(CCCC2)C1=O)C(=O)c1ccccc1 (configuration not stated) do in these assays?
gsp antag: -22%; D2 potentiator: -29; D2 agonist: -2.2; gsp ag: 3%[15.4 µM]; Six1-Eya2 inh: 4; CtBP-E1A blk: 5

Results for CSc1nc2ccc(NS(=O)(=O)c3c(Cl)cccc3Cl)cc2s1 ?
gsp antag: -3%; D2 potentiator: 1; D2 agonist: -1.2; gsp ag: -25%; Six1-Eya2 inh: 6; CtBP-E1A blk: -17

How did O=C1CCC2(CCCC2)c2ccccc21 do in these assays?
D2 potentiator: -7; D2 agonist: -2.4; gsp ag: 6%; Six1-Eya2 inh: 17; CtBP-E1A blk: 0

Further structures.
What do the screens show for `COC(=O)c1cc2ccsc2n1CC(=O)NCC1CCCO1` (configuration not stated)?
gsp antag: 5%; D2 potentiator: -3; D2 agonist: -1.8; gsp ag: -18%; Six1-Eya2 inh: 5; CtBP-E1A blk: 8

How did CCc1cc2c(NC(Cc3ccccc3)C(=O)O)ncnc2s1 (configuration not stated) do in these assays?
gsp antag: -17%; D2 potentiator: 2; D2 agonist: -0.2; gsp ag: -3%; Six1-Eya2 inh: 0; CtBP-E1A blk: -1

What do the screens show for `CCN(C[C@H]1N[C@@](C)(C(=O)OC)[C@H]2C(=O)N(C)C(=O)[C@@H]12)C(=O)c1ccccc1`?
gsp antag: 9%; D2 potentiator: -4; D2 agonist: -0.6; Six1-Eya2 inh: 5; CtBP-E1A blk: 2

How did CCCN1Cc2cccc(C(=O)NC3CCCC3)c2C1=O do in these assays?
gsp antag: 11%; D2 potentiator: -4; D2 agonist: -1.1; gsp ag: -1%; Six1-Eya2 inh: 0; CtBP-E1A blk: 1

Results for COc1cccc(C2CC(c3ccccc3Cl)n3nc(N)nc3N2)c1 (configuration not stated) ?
gsp antag: 2%; D2 potentiator: 9; D2 agonist: -1.3; gsp ag: -2%; Six1-Eya2 inh: 18; CtBP-E1A blk: 29

Results for O=S(=O)(c1ccc(C2CCCCC2)cc1)N1CCOCC1 ?
gsp antag: 12%; D2 potentiator: 6; D2 agonist: -2.7; gsp ag: -1%; Six1-Eya2 inh: 9; CtBP-E1A blk: 10

How did CC(=O)N/N=C(\C)CCc1ccccc1 do in these assays?
gsp antag: 3%; D2 potentiator: -7; D2 agonist: -2.9; gsp ag: 6%; Six1-Eya2 inh: 0

Results for Cc1cccc(C)c1N1C(=O)CCC(C)(C)C1=O ?
gsp antag: 10%; D2 potentiator: 0; D2 agonist: 3.7; gsp ag: 5%; Six1-Eya2 inh: 4; CtBP-E1A blk: 4

How did Cc1nc2sc3c(c2c(=O)o1)CCC3 do in these assays?
gsp antag: -4%; D2 potentiator: -15; D2 agonist: 0.0; gsp ag: 27%; Six1-Eya2 inh: -10; CtBP-E1A blk: 4

How did COc1ccc2oc(=O)c(-c3nc4ccccc4o3)cc2c1 do in these assays?
gsp antag: -6%; D2 potentiator: 17; D2 agonist: -0.8; gsp ag: 4%; Six1-Eya2 inh: 0; CtBP-E1A blk: 5

How did CCC(c1c(C)[nH]oc1=O)c1c(C)[nH]oc1=O do in these assays?
gsp antag: -13%; D2 potentiator: -7; D2 agonist: -0.8; gsp ag: 0%; Six1-Eya2 inh: 6; CtBP-E1A blk: -2

Results for CCC1CCCCN1CCCNC(=O)c1ccc(CS(=O)(=O)c2ccccc2OC)o1 (configuration not stated) ?
gsp antag: 4%; D2 potentiator: -15; D2 agonist: -0.5; gsp ag: -13%; Six1-Eya2 inh: 3; CtBP-E1A blk: 8

How did CC(=O)Nc1ccc(/C=N/N2CCCCC2)cc1 do in these assays?
gsp antag: 3%; D2 potentiator: -9; D2 agonist: -3.0; gsp ag: 4%[15.4 µM]; Six1-Eya2 inh: -4; CtBP-E1A blk: 14

How did C/C(=N\N)c1c(-c2ccccc2)c2cc(C)ccc2[nH]c1=O do in these assays?
gsp antag: 6%; D2 potentiator: -9; D2 agonist: -3.0; gsp ag: 3%; Six1-Eya2 inh: -1; CtBP-E1A blk: -5

How did Cc1ccc(C(=O)NC2CCCCCCC2)c(Cl)c1 do in these assays?
gsp antag: 3%; D2 potentiator: -18; D2 agonist: -1.8; gsp ag: -3%; Six1-Eya2 inh: 0

How did C=CCSc1nnc(NC(=O)c2ccc(Cl)nc2)s1 do in these assays?
gsp antag: 4%; D2 potentiator: -2; D2 agonist: 0.4; gsp ag: -8%; Six1-Eya2 inh: 3; CtBP-E1A blk: 0

Results for CCOC(=O)C1CCCN(c2nnnn2-c2ccccc2)C1 (configuration not stated) ?
gsp antag: 2%; D2 potentiator: -9; D2 agonist: 0.2; gsp ag: 5%; Six1-Eya2 inh: 2; CtBP-E1A blk: 7

Results for O=C(N/N=C/c1ccco1)c1cc(-c2ccc3ccccc3c2)n[nH]1 ?
gsp antag: -9%; D2 potentiator: -7; D2 agonist: 7.7; gsp ag: -6%; Six1-Eya2 inh: inconclusive; CtBP-E1A blk: -29

How did COc1ccc(N(C(=O)c2snc(C(N)=O)c2N)C(C(=O)NCc2ccc(F)cc2)c2ccc(C)o2)c(OC)c1 (configuration not stated) do in these assays?
gsp antag: -6%; D2 potentiator: -11; D2 agonist: -4.7; gsp ag: -6%; Six1-Eya2 inh: -5; CtBP-E1A blk: -3

Assay outcomes deposited in PubChem by National Center for Advancing Translational Sciences (NCATS).

Not a hit list; any-hit rate near 1.4%.
